PV pol inh = poliovirus RdRp elongation inhibitors, primary screen, biochemical, fluorescence polarization, total intensity; poliovirus polymerase elongation; hits give low values; 150,000 tested, 0.66% active; Genome polyprotein (Poliovirus type 1 (strain Mahoney)), P03300; % elongation, % (compound at 16.7 µg/mL); in the data active = % elongation below about 90%; also: some results filed as inactive read as strong as hits
Target sequence (P03300 1749-2209 limits assumed): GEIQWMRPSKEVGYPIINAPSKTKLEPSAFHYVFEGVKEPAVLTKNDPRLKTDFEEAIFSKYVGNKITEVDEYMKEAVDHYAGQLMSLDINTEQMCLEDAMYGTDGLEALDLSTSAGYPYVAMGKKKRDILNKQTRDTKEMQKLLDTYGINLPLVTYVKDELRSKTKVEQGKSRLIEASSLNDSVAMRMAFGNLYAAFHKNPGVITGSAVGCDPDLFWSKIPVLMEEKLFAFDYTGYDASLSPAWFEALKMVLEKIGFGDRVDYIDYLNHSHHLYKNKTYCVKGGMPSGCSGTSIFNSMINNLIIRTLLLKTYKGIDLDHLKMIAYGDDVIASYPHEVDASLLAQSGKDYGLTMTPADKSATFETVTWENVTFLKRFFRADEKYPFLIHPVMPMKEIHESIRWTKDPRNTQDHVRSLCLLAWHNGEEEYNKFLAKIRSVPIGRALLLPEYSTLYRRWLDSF
Mtb MenB inh = M. tuberculosis MenB inhibitors, primary screen, biochemical, absorbance; inhibition, %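 (about 12 µg/mL by stock and volumes)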; MenB enzyme assay, absorbance read-out; some hits fall short of the stated cut; 100,000 tested, 0.43% active; 1,4-dihydroxy-2-naphthoyl-CoA synthase (Mycobacterium tuberculosis (strain ATCC 25618 / …;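 active = mean of two replicates above 30%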;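 also: 0% = no compound and 100% = wells with inactive enzyme; the first replicate is given; strong numbers were not always called active; inactives centre near -10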
Target sequence (P9WNP5 whole entry, looked up): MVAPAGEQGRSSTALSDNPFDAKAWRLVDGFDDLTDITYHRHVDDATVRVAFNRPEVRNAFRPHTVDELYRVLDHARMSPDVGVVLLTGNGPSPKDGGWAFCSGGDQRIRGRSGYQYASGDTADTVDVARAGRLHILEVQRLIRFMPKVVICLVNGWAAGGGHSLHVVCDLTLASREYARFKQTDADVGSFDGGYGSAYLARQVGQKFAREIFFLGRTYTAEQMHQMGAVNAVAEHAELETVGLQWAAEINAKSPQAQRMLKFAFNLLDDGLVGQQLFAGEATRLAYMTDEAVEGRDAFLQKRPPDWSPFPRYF
MbtI inh = MbtI salicylate synthase inhibitors, primary screen, biochemical, fluorescence intensity; purified MbtI enzyme, fluorescence intensity read-out; inhibition, %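 (about 17 µg/mL by stock and volumes)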; 100,000 tested, 0.89% active;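 active = above 50% in both replicates, above 80% if mildly self-fluorescent; inactive = the rest, strongly fluorescent compounds included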;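 also: 0% = mean of negative and 100% = mean of positive controls; one replicate is shown; some compounds called inactive have numbers as strong as hits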
PV pol inh intensity = recorded beside PV pol inh, whose call it bears; % elongation; measured here: total intensity read-out; formula for this scale not given here;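 total fluorescence in place of polarization; lower means less elongation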
Starred values were filed as active, the others as inactive; i = inactive; · = no result given; & = joins results of further samples.

| structure | PV pol inh intensity | MbtI inh | PV pol inh | Mtb MenB inh |
| --- | --- | --- | --- | --- |
| Cc1cc(C)c(C)c(S(=O)(=O)N2CCSCC2)c1C | 103 | -9 | 101 | 1 |
| Cc1oc(-c2ccc(C(=O)NCc3ccccn3)cc2)nc1Cn1cccn1 | 103 | 119 | 99 | -8 |
| Cc1nn(CC(O)c2ccccc2)c(C)c1Br (configuration not stated) | 102 | 0 | 102 | 9 |
| Cc1c(C(=O)Nc2ccccc2)sc2ncn(CC(=O)N3CCOCC3)c(=O)c12 | 108 | 11 | 102 | -20 |
| COC(=O)C(C)(C)NC(=O)c1cccs1 | 103 | -8 | 100 | 2 |
| CCCNC(=O)N(C)c1nncnc1C(=O)NC | 104 | -15 | 104 | -1 |
| COc1ccc(C(=O)c2cc3c(CO)cnc(C)c3oc2=O)cc1 | 102 | 8 | 102 | -12 |
| CCOC(=O)C1=C(C)N(CCOC)C(=O)/C1=C\c1ccc(N(C)C)cc1 | 100 | 12 | 102 | -21 |
| COc1cccc(N2C(N)=NC(N)=NC2(C)C)c1 | 103 | -1 | 105 | -12 |
| CCc1ccc(C=NN2CCN(Cc3ccccc3)CC2)cc1 | 98 | 18 | 99 | -6 |
| CCCNC(=O)c1ccc(CS(=O)c2ccc(Br)cc2)o1 (configuration not stated) | 107 | -5 | 104 | -12 |
| O=C(OCc1cccc(COC(=O)c2ccccc2)c1F)c1ccccc1 | 107 | -2 | 102 | -11 |
| O=C(CSc1ncn[nH]1)Nc1ccc(OCc2ccccc2)cc1 | 103 | 12 | 104 | -8 |
| O=C(Nc1ccccc1Cc1ccccc1)c1ccc(Br)o1 | 105 | 1 | 100 | -2 |
| Oc1ccccc1C1=Nc2ccccc2N=C(c2ccc(Cl)cc2)C1 | 105 | -3 | 101 | 15 |
| CC(C(=O)Nc1ccc2c(c1)OCO2)N(C)CC(=O)Nc1ccccc1Cl (configuration not stated) | 105 | -2 | 103 | 3 |
| Cn1c(=O)c2c(SCC(=O)Nc3ccccc3C(F)(F)F)ccnc2n(C)c1=O | 104 | -14 | 104 | -13 |
| COC(CNS(=O)(=O)c1ccc(S(=O)(=O)NC2CC2)cc1)OC | 106 | -8 | 105 | -4 |
| OC(CCCN1CCCCC1)(c1ccccc1)c1ccccc1 | 102 | -3 | 99 | -5 |
| O=C(COC(=O)c1cccs1)NCc1cccs1 | · | -4 | · | 15 |
| CCN(CC)S(=O)(=O)c1ccc2c(c1)nc(CCC(=O)OCC#N)n2C | 126 | -2 | 114 | -21 |
| Cc1ccc(C)c(-n2c(=O)c3ccccc3n3c(SC(C)C(N)=O)nnc23)c1 (configuration not stated) | 105 | 4 | 104 | -26 |
| CCn1c(SCC(=O)c2ccc(Br)cc2)nnc1-c1ccncc1 | 103 | 10 | 100 | 16 |
| COC(=O)c1cc2oc3ccccc3c2n1CC(=O)Nc1ccc(F)cc1F | 103 | 13 | 102 | -25 |
| CCc1cccc(C)c1Nc1c(-c2ccccc2O)nc2ncccn12 | 111 | -1 | 102 | -40 |
| Cc1cccc(C)c1NC(=O)CN(C)C(C)C(=O)N1c2ccccc2CC1C (configuration not stated) | 104 | -2 | 106 | -25 |
| COc1ccc(-n2c(N)c(C(=O)NCCN3CCOCC3)c3nc4ccccc4nc32)cc1OC | 85 | -72 | 98 | -68 |
| Cc1sc2nc(N)c(C#N)c(C)c2c1C | 102 | 44 | 101 | -4 |
| CN1CCC(N(C)C(=O)c2cc(-c3ccccc3Cl)nc3ccccc23)CC1 | 104 | 2 | 101 | · |
| CN1CCN(C(=O)c2ccc3c(c2)N(Cc2ccccc2)CCS3)CC1 | 95 | 15 | 99 | 9 |
| CC(=O)NC1(C(F)(F)F)C(=O)Nc2c1c(=O)n(C)c(=O)n2C (configuration not stated) | 99 | 0 | 101 | -19 |
| N#Cc1ccccc1CSc1nc2ccccc2n1-c1ccccc1 | 143 | 1 | 129 | -25 |
| COc1cccc(C(=O)Nc2sc3c(c2C(N)=O)CCN(C(C)=O)C3)c1OC | 101 | 2 | 97 | 2 |
| CCn1cnc(C(=O)NC)c1C(=O)NC | 101 | -6 | 104 | · |
| FC(F)(F)c1cc(Oc2ncnc3c2oc2ccccc23)cc(C(F)(F)F)c1 | 122 | -4 | 103 | -7 |
| CC(C)c1ccc(-n2c(-c3ccco3)nc3c(cnn3-c3ccc(Cl)cc3)c2=O)cc1 | 101 | -8 | 100 | 5 |
| O=C(COc1ccc(Cl)cc1)N1CCCC1 | 96 | · | 100 | -30 |
| C/C(Nc1nc(-c2cc(C)n(Cc3ccccc3Cl)c2C)cs1)=C(/C#N)C(N)=O | 107 | -3 | 103 | -17 |
| Cn1c(=O)c(-c2cc(-c3ccccc3C(=O)NN)n(-c3ccccc3)n2)c(O)c2ccccc21 | 93 | · | 96 | -68 |
| Cc1ccc2c(c1)CCCN2C(=O)c1csc(C)c1 | 101 | 0 | 98 | -17 |
| COc1ccc(N/C(N)=N/c2nc(C)cc(=O)[nH]2)cc1 | 100 | 7 | 103 | -22 |
| Cc1ccc(OCCNC(=O)c2ccc(C)o2)cc1 | 106 | -10 | 108 | 3 |
| Cc1ccccc1NC(=O)Cc1nc(Cn2cc(S(=O)(=O)N3CCCC3)ccc2=O)cs1 | 98 | 6 | 103 | 14 |
| CCN(CC)S(=O)(=O)c1ccc(N2CCc3cc(OC)c(OC)cc3C2)nc1 | 101 | -30 | 101 | -38 |
| NCC(CC(=O)O)c1ccc(Cl)cc1 (configuration not stated) | 103&101 | -2&-16 | 100&101 | 4&4 |
| FC(F)(F)c1cccc(N=Cc2ccccc2)c1 | 93 | · | 98 | -21 |
| O=C1CSC(=NC2CCCC2)N1 | 100 | 16 | 99 | · |
| CCC1C(=O)NCCN1C(=O)c1ccc(Br)o1 (configuration not stated) | 103 | -1 | 100 | 13 |
| Cc1ccc(-c2cc3cc(C)c(C#N)c(N4CCCCCC4)n3c2)cc1 | 104 | · | 106 | -11 |
| Cc1ccc(C2C3=C(CC(C)(C)CC3=O)N(CCN3CCOCC3)C3=C2C(=O)CC(C)(C)C3)cc1 | 102 | 5 | 101 | 4 |

Other results follow.
| structure | PV pol inh intensity | MbtI inh | PV pol inh | Mtb MenB inh |
| --- | --- | --- | --- | --- |
| O=C(O)CCc1nc2c(cnn2-c2ccccc2)c(=O)[nH]1 | 103 | -9 | 101 | -24 |
| O=C(O)CCC(=O)Nc1nncs1 | 103 | -4 | 101 | -11 |
| O=C(Nc1ccc(CN2CCCCC2)cc1)c1c(F)c(F)c(F)c(F)c1F | 105 | -3 | 102 | -15 |
| N#Cc1ccc(-c2csc(-c3ccc(C(F)(F)F)cc3)n2)cc1 | 105 | 18 | 104 | -11 |
| O=C(Cn1cnc2ccccc21)OCC(=O)N1CCc2ccccc21 | 98 | 12 | 100 | · |
| COCCN(Cc1ccco1)C(=O)c1cc2c(s1)-c1ccccc1OC2 | 102 | 117 | 100 | -16 |
| OC1(/C=C/CN2CCCCC2)CCCCC1 | 104 | · | 102 | -21 |
| O=C(/C=C/c1ccco1)Nc1ccc(CN2CCOCC2)cc1 | 97 | 5 | 99 | -18 |
| Cc1ccc(CSc2nc3ccncc3n2CC(=O)N(C)c2ccccc2)cc1 | 101 | -7 | 101 | -19 |
| O=C(CCC(=O)Nc1ccc(S(=O)(=O)N2CCCCC2)cc1)Nc1ccc(S(=O)(=O)N2CCCCC2)cc1 | 100 | 6 | 104 | -27 |
| Cn1c(CCCCN)nc2ccccc21 | 102 | -3 | 106 | -77 |
| CC(Cc1ccccc1)NC=O (configuration not stated) | 98 | -5 | 99 | -61 |
| COc1ccc(C2(C(=O)NCc3ccco3)CCOCC2)cc1 | 106 | -2 | 102 | -5 |
| CCCN(CCC)C(=O)C1=C(C)C(=O)OC12CCC(C)CC2 (configuration not stated) | 100 | -2 | 104 | -24 |
| Cc1cc(C(=O)COC(=O)CC2Sc3ccccc3NC2=O)c(C)n1C (configuration not stated) | 118 | -6 | 102 | -9 |
| CCOC(=O)C1=C(C)NC(C)=C(C(=O)OCC)C1C1=COCCO1 | 102 | 1 | 103 | -43 |
| C(=N/n1cnc2ccccc21)/c1ccccc1 | 101 | 15 | 99 | -27 |
| COC(=O)Cn1cc(/C=C(/C#N)C(=O)NCc2ccccc2)c2ccccc21 | 100 | -46 | 100 | -111 |
| CCOC(=O)C1=C(CN2CCn3cccc3C2C)NC(=O)NC1c1ccc(Cl)cc1 (configuration not stated) | 103 | 17 | 102 | -27 |
| O=C(Nc1ccccc1N1CCCC1)c1ccccc1 | 102 | -3 | 101 | -10 |
| Cc1ccccc1Nc1nc(N)nc(COc2ccc(F)cc2C(=O)c2cc(C#N)c(=O)n(C(C)C)c2)n1 | 107 | 3 | 103 | -1 |
| Cc1nc2ccccc2nc1SCC(=O)NC1CCCCC1 | 107 | -16 | 103 | · |
| CC(C)(C)c1ccc(OCCCC(=O)N2CCOCC2)cc1 | 103 | -11 | 101 | -28 |
| O=C(COn1nnc2ccccc21)N1CCC(Cc2ccccc2)CC1 | 102 | -10 | 105 | -32 |
| O=S(=O)(c1ccccc1)n1ccc(-c2ccc(C#Cc3ccccc3)cc2)n1 | 112 | -12 | 106 | -6 |
| O=C(Cn1nnc(-c2ccc3c(c2)OCO3)n1)N1CCOCC1 | 92 | · | 99 | -2 |
| Nc1ccc(-c2nnn(CC(=O)N3CCCC3)n2)cc1 | 103 | 4 | 101 | -8 |
| O=C(O)C1CCC(Cn2c(SCc3ccccc3Cl)nc3ccsc3c2=O)CC1 (configuration not stated) | 108 | -4 | 102 | -22 |
| CC(=O)OC(C)C[N+](C)(C)C (configuration not stated) | 100&102 | -6&-17 | 100&101 | 1&2 |
| COC(=O)C1=C(C)N(C)C(=O)C12c1ccccc1-c1oc(N)nc12 (configuration not stated) | 102 | -7 | 98 | 0 |
| Cc1cccc(N2CCN(Cc3ccco3)CC2)c1C | 99 | -9 | 98 | -9 |
| COC(=O)c1cc2c(=O)n3ccccc3nc2n(C(C)C)c1=N | 98 | i | 102 | -74 |
| CC(C)c1cc(NS(=O)(=O)c2ccccc2)c(O)c(C(C)C)c1 | 100 | -7 | 100 | -18 |
| CCC(=O)N(c1nnc(SCC(=O)NC(=O)c2ccccc2OC)s1)C1CC1 | 109 | -13 | 102 | -10 |
| c1ccc(N2CN3CN2CN3c2ccccc2)cc1 | 103 | -220 | 104 | -4 |
| Cn1c(C(C#N)c2cnn(-c3ccccc3)c(=O)c2Br)nc2ccccc21 (configuration not stated) | 140 | 22 | 87 | -90 |
| COc1ccc(C(=O)NN2CC(=O)N(C(C)C)C2=O)c2ccccc12 | 108 | 12 | 101 | 5 |
| Cc1ccc(/C=C2/NC(=O)N(Cc3ccc(Br)cc3)C2=O)o1 | 105 | 63 | 102 | -26 |
| NC(=O)C1CCCN(C(=O)Nc2c[nH]c3ccccc3c2=O)C1 (configuration not stated) | 101 | 88 | 104 | -37 |
| O=C(O)C(Cc1cnc[nH]1)NC1CNN=C1c1ccc(Cl)cc1 (configuration not stated) | 101 | · | 95 | -8 |
| Nc1ccc(-c2nc3cc(Cl)ccc3o2)c(O)c1 | 137 | · | 108 | 1 |
| CC1=CC(C)(C)N=C(Nc2nc(C)c3cc(C)cc(C)c3n2)N1 | 95* | · | 76* | -20 |
| COc1ccc(N2CCN(C3CC(=O)N(CCc4ccccc4)C3=O)CC2)cc1 (configuration not stated) | 101 | -7 | 101 | -19 |
| CCCn1cnc2scc(-c3ccc(OC)cc3)c2c1=O | 111 | · | 112 | -22 |
| CC(NC(=O)COc1ccccc1)C(=O)O (configuration not stated) | 100 | · | 106 | 3 |
| Cc1ccc(Nc2cc(C(=O)NCc3ccco3)c3ccccc3n2)c(C)c1 | 103 | 8 | 100 | -3 |

Gathered by group, the entries above with an aryl methoxy group (eleven)
| structure | PV pol inh intensity | MbtI inh | PV pol inh | Mtb MenB inh |
| --- | --- | --- | --- | --- |
| COc1ccc(C(=O)c2cc3c(CO)cnc(C)c3oc2=O)cc1 | 102 | 8 | 102 | -12 |
| COc1cccc(N2C(N)=NC(N)=NC2(C)C)c1 | 103 | -1 | 105 | -12 |
| COc1ccc(-n2c(N)c(C(=O)NCCN3CCOCC3)c3nc4ccccc4nc32)cc1OC | 85 | -72 | 98 | -68 |
| COc1cccc(C(=O)Nc2sc3c(c2C(N)=O)CCN(C(C)=O)C3)c1OC | 101 | 2 | 97 | 2 |
| COc1ccc(N/C(N)=N/c2nc(C)cc(=O)[nH]2)cc1 | 100 | 7 | 103 | -22 |
| CCN(CC)S(=O)(=O)c1ccc(N2CCc3cc(OC)c(OC)cc3C2)nc1 | 101 | -30 | 101 | -38 |
| COc1ccc(C2(C(=O)NCc3ccco3)CCOCC2)cc1 | 106 | -2 | 102 | -5 |
| CCC(=O)N(c1nnc(SCC(=O)NC(=O)c2ccccc2OC)s1)C1CC1 | 109 | -13 | 102 | -10 |
| COc1ccc(C(=O)NN2CC(=O)N(C(C)C)C2=O)c2ccccc12 | 108 | 12 | 101 | 5 |
| COc1ccc(N2CCN(C3CC(=O)N(CCc4ccccc4)C3=O)CC2)cc1 (configuration not stated) | 101 | -7 | 101 | -19 |
| CCCn1cnc2scc(-c3ccc(OC)cc3)c2c1=O | 111 | · | 112 | -22 |

Source: PubChem (ICCB-Longwood Screening Facility, Harvard Medical School)
